Arbovirus inh – blocks arbovirus infection | arbovirus infection cell-based antiviral screen | inhibition, % at 10 µM | 200,000 tested, 0.37% active | AID 1251;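 active means inhibition from about 30%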;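 further: bluetongue infection of BSR cells; cell survival read as ATP light after 72 h; 0% = infected wells without compound and 100% = uninfected wells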
Mtb growth – M. tuberculosis H37Rv growth inhibitors, H37Rv strain (AID 1626); inhibition, % at 10 µM, or IC50 in µM where a hit was titrated; 220,000 tested, 0.95% active; M. tuberculosis H37Rv growth inhibition; higher % means a stronger effect;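 active means confirmed in a dose series; inconclusive means inhibition above 80% but not taken into the dose series; inactive means below 80% or under 30% at every dose of the series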;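 further: bacteria incubated seven days before Alamar blue readout; 0% = bacteria only wells and 100% = bacteria with antibiotic wells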
Mtb bLac sens – beta-lactam sensitization of Mtb H37Rv | M. tuberculosis H37Rv growth with meropenem, percent inhibition; hits of this screen are not shown here | inhibition, % at 25 µM | 330,000 tested, 0.27% active;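 active means about 74% or more and at least 40 points above the plate without the antibiotic, then above 30% in a dose series; inconclusive means first-round hits that could not be retested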;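 further: growth measured after seven days incubation then overnight dye step; 0% = bacteria only wells and 100% = bacteria with antibiotic; twin plates without the antibiotic show which effects depend on it; some results filed as inactive read as strong as hits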
YopH PTP inh – inhibitors of Yersinia enterocolitica YopH tyrosine phosphatase; fluorescence Ex485/Em525; inhibition, %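 (about 10 µM by stock and volumes)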; 140,000 tested, 0.16% active;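 active means inhibition of 50% or more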;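 further: controls were vehicle for no effect and minimum signal wells for full effect; inactives centre near -20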
RecA splice inh – inhibitors of M. tuberculosis RecA intein splicing; P9WHJ3; cell-free RecA intein splicing, fluorescence; inhibition, %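 (about 9 µM by stock and volumes)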; 290,000 tested, 0.75% active; AID 2221; in the data active means inhibition above about 30%; inconclusive means no clear call, values can overlap the other calls;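 further: 0% = vehicle wells and 100% = reference inhibitor control wells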
Target sequence (P9WHJ3 whole entry, looked up, canonical isoform): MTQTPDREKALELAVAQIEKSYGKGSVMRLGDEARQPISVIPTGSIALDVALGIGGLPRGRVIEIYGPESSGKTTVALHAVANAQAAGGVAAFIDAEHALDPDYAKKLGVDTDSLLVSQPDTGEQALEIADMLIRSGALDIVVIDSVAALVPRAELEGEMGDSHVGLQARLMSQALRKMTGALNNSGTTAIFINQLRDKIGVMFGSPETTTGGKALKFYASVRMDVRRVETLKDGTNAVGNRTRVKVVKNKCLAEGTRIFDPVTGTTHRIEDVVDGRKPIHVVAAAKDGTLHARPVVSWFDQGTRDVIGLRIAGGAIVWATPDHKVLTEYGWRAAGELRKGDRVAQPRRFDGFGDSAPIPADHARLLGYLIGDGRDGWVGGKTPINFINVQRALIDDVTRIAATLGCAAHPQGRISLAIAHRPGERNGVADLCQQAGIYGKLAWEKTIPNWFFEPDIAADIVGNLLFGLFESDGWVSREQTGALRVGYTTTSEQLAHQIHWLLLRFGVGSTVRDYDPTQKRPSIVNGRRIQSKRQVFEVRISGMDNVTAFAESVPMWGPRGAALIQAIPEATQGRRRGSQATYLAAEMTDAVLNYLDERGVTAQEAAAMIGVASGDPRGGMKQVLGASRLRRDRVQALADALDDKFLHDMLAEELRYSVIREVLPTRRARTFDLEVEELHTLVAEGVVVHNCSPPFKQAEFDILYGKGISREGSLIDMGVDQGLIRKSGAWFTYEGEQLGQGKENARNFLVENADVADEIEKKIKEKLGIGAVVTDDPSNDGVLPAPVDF
Arbovirus inh repeat – further read-out of Arbovirus inh, marked with its call; inhibition, %; measured here: 10K subset replicate screen; many hits read low in the repeat;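 first of two repeat runs on a subset; 0% = infected and 100% = uninfected wells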
Starred values were filed as active, the others as inactive. An excerpt; rates above refer to the full screens.

Results for O=C(O)Cc1sc(Nc2ccc(Cl)cc2)nc1-c1cccs1 ?
Arbovirus inh: 24.3; Mtb growth: 10.6%; RecA splice inh: 4.1

How did N=c1n(CC(=O)c2ccc([N+](=O)[O-])cc2)c2ccccc2n1Cc1ccc(Cl)cc1 do in these assays?
Arbovirus inh: -1.4; Mtb growth: 0.9%; Mtb bLac sens: 2.4; YopH PTP inh: -20.8; RecA splice inh: -2.1

Results for O=C(NC1CC1)C1=C[C@@H](c2coc3ccccc3c2=O)C[C@@H](OCCCCO)O1 ?
Mtb growth: -3.4%; Mtb bLac sens: -1.3; RecA splice inh: -2.0

How did N#C/C(=C\c1ccccc1)C(=O)OCC(=O)N1CCCC1 do in these assays?
Arbovirus inh: 0.6; Mtb growth: 3.6%; Mtb bLac sens: 1.5; RecA splice inh: 4.0

Results for COc1ccccc1CNC(=O)COC(=O)Cc1ccsc1 ?
Arbovirus inh: 6.7; Mtb growth: -1.6%; RecA splice inh: -0.7

How did O=C(NCc1cccnc1)c1ccc(COc2ccc3c(c2)CCC3)o1 do in these assays?
Arbovirus inh: 9.1; Mtb growth: 12.9%; Mtb bLac sens: -4.6; YopH PTP inh: 1.8; RecA splice inh: 4.5

Results for COc1ccc(NC(=O)CNC(=O)Cn2c(C)cc3ccccc3c2=O)c(OC)c1 ?
Arbovirus inh: -3.2; Mtb growth: -3.9%; Mtb bLac sens: 0.8; RecA splice inh: -2.6

Results for Cc1cc(C)c(C)c(S(=O)(=O)NCc2ccco2)c1C ?
Arbovirus inh: 10.8; Mtb growth: -2.0%; Mtb bLac sens: -1.5; YopH PTP inh: -5.7; RecA splice inh: 14.6

How did CCOC(=O)c1c(C)[nH]c(C(=O)CSc2nc3ccccc3o2)c1C do in these assays?
Arbovirus inh: -9.8; Mtb growth: -7.2%; Mtb bLac sens: 1.2; YopH PTP inh: 10.3; RecA splice inh: -1.7

How did Cc1nc(N2CCC(C)CC2)c2c(C)c(C(=O)Nc3ccc(C(F)(F)F)cc3)sc2n1 do in these assays?
Arbovirus inh: 3.0; Mtb growth: -4.2%; Mtb bLac sens: 4.7; RecA splice inh: 0.8

How did Cc1ccc(-n2cccn2)c(CN2CCCC(C(=O)c3ccc4c(c3)OCO4)C2)c1 (centres undefined) do in these assays?
Arbovirus inh: 1.3; Mtb growth: 7.6%; Mtb bLac sens: -3.5; RecA splice inh: 0.4

What do the screens show for `CC(=O)Nc1ccc(OCC(=O)NCCc2ccc(Cl)cc2)cc1`?
Arbovirus inh: -4.3; Mtb growth: 9.0%; Mtb bLac sens: -3.8; YopH PTP inh: -13.3; RecA splice inh: -1.2

Fetched one by one from the list above, 5 records:
How did Cc1ccc(-n2cccn2)c(CN2CCCC(C(=O)c3ccc4c(c3)OCO4)C2)c1 (centres undefined) do in these assays?
Arbovirus inh: 1.3; Mtb growth: 7.6%; Mtb bLac sens: -3.5; RecA splice inh: 0.4

Results for COc1ccccc1CNC(=O)COC(=O)Cc1ccsc1 ?
Arbovirus inh: 6.7; Mtb growth: -1.6%; RecA splice inh: -0.7

Results for Cc1cc(C)c(C)c(S(=O)(=O)NCc2ccco2)c1C ?
Arbovirus inh: 10.8; Mtb growth: -2.0%; Mtb bLac sens: -1.5; YopH PTP inh: -5.7; RecA splice inh: 14.6

What do the screens show for `CC(=O)Nc1ccc(OCC(=O)NCCc2ccc(Cl)cc2)cc1`?
Arbovirus inh: -4.3; Mtb growth: 9.0%; Mtb bLac sens: -3.8; YopH PTP inh: -13.3; RecA splice inh: -1.2

How did Cc1nc(N2CCC(C)CC2)c2c(C)c(C(=O)Nc3ccc(C(F)(F)F)cc3)sc2n1 do in these assays?
Arbovirus inh: 3.0; Mtb growth: -4.2%; Mtb bLac sens: 4.7; RecA splice inh: 0.8

Further records.
How did CCCCc1nnc(NC(=O)C2CC(=O)N(c3ccc4c(c3)OCCO4)C2)s1 (centres undefined) do in these assays?
Arbovirus inh: 3.1; Mtb growth: 5.1%; Mtb bLac sens: 15.1; YopH PTP inh: -16.4; RecA splice inh: -2.2

What do the screens show for `N#CC1=C(SCC(=O)Nc2ccccc2)NC(=O)CC1c1ccc(O)cc1` (centres undefined)?
Arbovirus inh: 42.2*; Mtb growth: 6.9%; Mtb bLac sens: -2.5; YopH PTP inh: -24.8; RecA splice inh: 1.9; Arbovirus inh repeat: 39.1*

What do the screens show for `Nc1nc(NCc2cccs2)nn1-c1ccccc1`?
Mtb growth: 5.3%; Mtb bLac sens: -1.6; YopH PTP inh: 1.2; RecA splice inh: -0.2

What do the screens show for `COc1ccc(C(=O)c2coc3ccc(O)c(CN4CCCC4)c23)cc1`?
Arbovirus inh: -18.5; Mtb growth: 5.5%; Mtb bLac sens: 6.3; YopH PTP inh: -0.1; RecA splice inh: 0.8

How did CCOC(=O)c1cc2c(=O)c3cc(C)ccc3oc2nc1C do in these assays?
Mtb bLac sens: -0.5; RecA splice inh: 1.2

Results for CCN(CC)c1ccc(NC(=O)CSc2nnc3nc(C)cc(C)n23)cc1 ?
Arbovirus inh: 7.1; Mtb growth: 1.1%; Mtb bLac sens: -1.2; YopH PTP inh: 7.7; RecA splice inh: -0.8

What do the screens show for `COC(=O)Cn1cnc2c(oc3ccccc32)c1=O`?
Mtb bLac sens: inconclusive; RecA splice inh: -2.0

What do the screens show for `Cc1ccc(S(=O)(=O)NC(Cc2ccccc2)C(=O)NN)cc1` (centres undefined)?
Mtb bLac sens: -13.6; RecA splice inh: -2.0

How did CCOC(=O)C1=C(CS(=O)(=O)c2ccc(C)c(C)c2)NC(=O)NC1c1ccc(O)cc1 (centres undefined) do in these assays?
Arbovirus inh: 5.7; Mtb growth: -5.9%; Mtb bLac sens: -0.5; RecA splice inh: -0.8

How did CC1(C)Cc2c(sc3c2C2=NCCN2C=N3)CS1 do in these assays?
Arbovirus inh: 0.7; Mtb growth: 13.1%; Mtb bLac sens: 24.5; YopH PTP inh: 1.3; RecA splice inh: -9.4

Results for CC1CCCN(CCOCCSc2ccccc2)C1 (centres undefined) ?
Arbovirus inh: -20.9; Mtb growth: 0.3%; Mtb bLac sens: -5.9; YopH PTP inh: 15.1; RecA splice inh: -2.8

How did COc1ccc(-c2nc(CSCC(=O)NC3CCCc4ccccc43)c(C)o2)cc1 (centres undefined) do in these assays?
Arbovirus inh: -33.8; Mtb growth: -9.9%; Mtb bLac sens: -2.5; YopH PTP inh: -4.8; RecA splice inh: 7.9

What do the screens show for `Cc1ccc(S(=O)(=O)Nc2cc(-c3ccccc3)nn2C)cc1Cl`?
Mtb growth: 12.1%; Mtb bLac sens: -0.5; RecA splice inh: 3.1

How did CC1(C)C2CCC1(CS(=O)(=O)Nc1cccc(S(N)(=O)=O)c1)C(=O)C2 (centres undefined) do in these assays?
Mtb growth: 3.8%; Mtb bLac sens: -10.2; RecA splice inh: -0.1

How did COc1ccc(-c2n[nH]c(=S)n2/N=C/C=C/c2ccccc2OC)cc1 do in these assays?
Arbovirus inh: -7.0; Mtb growth: 15.7%; Mtb bLac sens: 12.9; YopH PTP inh: -17.6; RecA splice inh: -4.2

Results for COc1ccc2c(Cl)c(C(=O)N/N=C/c3c(C)[nH]c4ccccc34)sc2c1 ?
Arbovirus inh: -0.7; Mtb growth: 18.9%; Mtb bLac sens: 82.5; YopH PTP inh: -8.6; RecA splice inh: -1.5

What do the screens show for `O=C(NCCc1cccs1)c1ccc(CS(=O)Cc2ccc(Cl)cc2)o1` (centres undefined)?
Mtb bLac sens: -2.8; RecA splice inh: 0.7

How did COc1ccc(C(CC(=O)Nc2ccccc2OC)n2cccc2)cc1 (centres undefined) do in these assays?
Arbovirus inh: -10.8; Mtb growth: 3.2%; Mtb bLac sens: 0.2; YopH PTP inh: -35.1; RecA splice inh: 15.3

Results for O=C(CNC(=O)c1ccco1)N/N=C/c1ccc(O)cc1O ?
Mtb bLac sens: 0.6; RecA splice inh: -6.1

Results for C/C(=N\NC(=O)C(N)=O)c1ccc(Br)cc1 ?
Arbovirus inh: -0.2; Mtb growth: -1.3%; Mtb bLac sens: 8.5; YopH PTP inh: 14.2; RecA splice inh: -0.9

Results for Cc1ccc(CNCC(O)(c2ccc(F)cc2)c2ccc(F)cc2)cc1 ?
Arbovirus inh: -3.8; Mtb growth: 4.7%; Mtb bLac sens: -7.3; YopH PTP inh: -10.2; RecA splice inh: -0.2

What do the screens show for `Cc1ccc(NC(=O)C2CC(=O)Nc3ncnn32)c(C)c1` (centres undefined)?
Mtb growth: -2.7%; Mtb bLac sens: -7.9; RecA splice inh: 2.4

How did CCCCCn1c(Sc2ccccc2)nc2c1c(=O)[nH]c(=O)n2C do in these assays?
Arbovirus inh: 6.1; Mtb growth: 9.9%; Mtb bLac sens: 2.9; YopH PTP inh: -48.2; RecA splice inh: 2.1

Results for Cc1ccc(-n2c(=S)[nH]c3c(oc4ccccc43)c2=O)cc1 ?
Arbovirus inh: 5.7; Mtb growth: 7.2%; Mtb bLac sens: -3.9; YopH PTP inh: -11.9; RecA splice inh: -1.3

What do the screens show for `O=C(CN1CCCCC1)c1cccc(Br)c1`?
Arbovirus inh: -7.2; Mtb growth: -4.7%; Mtb bLac sens: -5.3; YopH PTP inh: -19.0; RecA splice inh: -2.4

Results for CC(C)Cc1cc(C(=O)Nc2cc(Br)ccc2O)no1 ?
Arbovirus inh: 5.0; Mtb growth: 3.9µM*; Mtb bLac sens: 35.9; YopH PTP inh: -43.6; RecA splice inh: 1.5

How did Cc1ccc2c(c1)COc1c3ccc(C(=O)N[C@@H](C)CO)cc3nn1-2 do in these assays?
Mtb growth: -13.0%; Mtb bLac sens: 13.8; RecA splice inh: 1.6

What do the screens show for `CCOC(=O)c1ccc(S(=O)(=O)NNS(=O)(=O)c2ccc(C)cc2)cc1`?
Mtb bLac sens: 3.9; RecA splice inh: -2.3

How did Cc1c2c(nc3ccccc13)CCC(C)C2 (centres undefined) do in these assays?
Arbovirus inh: -2.6; Mtb growth: 16.6µM*; Mtb bLac sens: 30.5; RecA splice inh: -1.3

What do the screens show for `COC1=CCC2([N+](=O)[O-])CN(CC(=O)O)CC1([N+](=O)[O-])C2` (centres undefined)?
Arbovirus inh: 7.6; Mtb growth: -5.2%; Mtb bLac sens: -0.7; YopH PTP inh: -24.9; RecA splice inh: -2.3

Results for CCCn1cnnc1CNC(=O)C1CCC(=O)N(CCc2cccc(F)c2)C1 (centres undefined) ?
Mtb bLac sens: -4.5; RecA splice inh: -1.3

How did CCOc1ccccc1NC(=O)C(OC(=O)c1cnccn1)c1ccccc1 (centres undefined) do in these assays?
Mtb bLac sens: -1.0; RecA splice inh: 0.6

How did CCOc1ccccc1NC(=O)NCc1cccnc1 do in these assays?
Arbovirus inh: -3.2; Mtb growth: -2.8%; Mtb bLac sens: -3.0; RecA splice inh: -3.3

What do the screens show for `Cc1cc(OC(C)C(=O)N2CCN(c3ccc(F)cc3)CC2)c2c(C)c(C)c(=O)oc2c1` (centres undefined)?
Mtb bLac sens: 0.4; RecA splice inh: 0.3

What do the screens show for `COCCNc1nc2c(c(=O)n(Cc3cccc(Cl)c3)c(=O)n2C)n1C`?
Mtb bLac sens: 4.1; RecA splice inh: 1.8

Results for CCC1CCCCN1C(=S)NC(=O)c1cccs1 (centres undefined) ?
Arbovirus inh: -2.8; Mtb growth: inconclusive; RecA splice inh: -0.8

How did COc1ccc(N/C=C/C(=O)c2ccc3c(c2)OCO3)cc1OC do in these assays?
Arbovirus inh: -7.7; Mtb growth: -2.1%; Mtb bLac sens: -2.5; YopH PTP inh: -28.2; RecA splice inh: -0.2

What do the screens show for `N#CC(c1ccc(Cl)nn1)c1ccc(Cl)cc1Cl` (centres undefined)?
Arbovirus inh: -6.6; Mtb growth: 2.1%; Mtb bLac sens: -11.8; YopH PTP inh: -2.1; RecA splice inh: 5.7

How did Cc1ccc(CNC(=O)Nc2ccc(F)cc2)n1C do in these assays?
Mtb bLac sens: 4.7; RecA splice inh: 1.0

What do the screens show for `O=c1c2ccccc2sc2ccc(Cl)cc12`?
Arbovirus inh: -2.3; Mtb growth: 47.0%; Mtb bLac sens: 53.5; YopH PTP inh: 4.2; RecA splice inh: -14.1

What do the screens show for `CCn1c(CN2CCN(CCO)CC2)nc2ccccc21`?
Arbovirus inh: 4.0; Mtb growth: 5.4%; Mtb bLac sens: 1.6; RecA splice inh: -3.8

Results for Cc1ccc(C(=O)Nc2ncccc2O)cc1S(=O)(=O)N1CCCCC1 ?
Mtb bLac sens: -7.7; RecA splice inh: -1.9

Results for CC(=O)NC(=O)COC(=O)/C=C/c1c(C)nn(Cc2c(Cl)cccc2Cl)c1Cl ?
Arbovirus inh: 1.2; Mtb growth: -4.9%; Mtb bLac sens: 11.5; YopH PTP inh: -3.5; RecA splice inh: 1.5

Results for CCc1ccc(-n2c(SCC(=O)N3CCC(C(=O)O)CC3)nnc2-c2ccncc2)cc1 ?
Arbovirus inh: -0.7; Mtb growth: 4.3%; Mtb bLac sens: -6.3; RecA splice inh: -0.4
